Screens: PubChem, ICCB-Longwood Screening Facility, Harvard Medical School
MenB inh = M. tuberculosis MenB inhibitors, primary screen, biochemical, absorbance. MenB enzyme assay, absorbance read-out; some hits fall short of the stated cut. inhibition, %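 (about 12 µg/mL by stock and volumes)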. 100,000 compounds, 0.43% hits. AID 540299, 2011;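 active means mean of two replicates above 30%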;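 further: 0% = no compound and 100% = wells with inactive enzyme; the first replicate is given; strong numbers were not always called active; inactives centre near -10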
Target sequence (P9WNP5 whole entry, looked up): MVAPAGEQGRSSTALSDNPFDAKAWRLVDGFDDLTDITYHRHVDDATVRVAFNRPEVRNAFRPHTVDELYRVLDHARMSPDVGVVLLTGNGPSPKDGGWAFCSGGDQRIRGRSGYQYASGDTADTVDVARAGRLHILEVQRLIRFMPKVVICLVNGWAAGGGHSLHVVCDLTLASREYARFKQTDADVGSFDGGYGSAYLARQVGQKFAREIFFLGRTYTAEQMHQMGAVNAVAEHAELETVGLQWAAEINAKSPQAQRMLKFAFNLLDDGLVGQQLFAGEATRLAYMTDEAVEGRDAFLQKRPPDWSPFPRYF
MbtI inh = MbtI salicylate synthase inhibitors, primary screen, biochemical, fluorescence intensity; inhibition, %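 (about 17 µg/mL by stock and volumes)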; purified MbtI enzyme, fluorescence intensity read-out; AID 493033, 2011; 100,000 compounds, 0.89% hits; P9WFX0;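 active means above 50% in both replicates, above 80% if mildly self-fluorescent; inactive means the rest, strongly fluorescent compounds included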;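 further: 0% = mean of negative and 100% = mean of positive controls; one replicate is shown; some compounds called inactive have numbers as strong as hits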
PV pol inh = poliovirus RdRp elongation inhibitors, primary screen, biochemical, fluorescence polarization, total intensity. Genome polyprotein (Poliovirus type 1 (strain Mahoney)), P03300. poliovirus polymerase elongation; stronger effect = lower value. % elongation, % (compound at 16.7 µg/mL). 150,000 compounds, 0.66% hits. AID 588519, 2011; in the data active means % elongation below about 90%; further: some results filed as inactive read as strong as hits
Target sequence (P03300 1749-2209 limits assumed): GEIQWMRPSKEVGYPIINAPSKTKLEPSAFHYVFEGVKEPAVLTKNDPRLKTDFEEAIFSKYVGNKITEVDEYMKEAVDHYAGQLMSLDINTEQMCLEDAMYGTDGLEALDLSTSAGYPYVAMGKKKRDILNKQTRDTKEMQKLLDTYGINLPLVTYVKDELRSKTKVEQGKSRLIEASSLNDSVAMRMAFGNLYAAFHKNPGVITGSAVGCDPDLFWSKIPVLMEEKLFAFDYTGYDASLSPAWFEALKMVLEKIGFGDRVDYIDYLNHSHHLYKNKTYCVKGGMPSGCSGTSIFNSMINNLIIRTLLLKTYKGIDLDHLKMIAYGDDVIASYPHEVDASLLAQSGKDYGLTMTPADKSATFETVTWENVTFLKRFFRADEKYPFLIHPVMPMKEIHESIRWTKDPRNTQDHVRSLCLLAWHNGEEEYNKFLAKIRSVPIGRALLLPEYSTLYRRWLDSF
PV pol inh intensity = recorded beside PV pol inh, whose call it bears; % elongation; measured here: total intensity read-out; formula for this scale not given here;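 total fluorescence in place of polarization; lower means less elongation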
The depositor's hits bear a star; i = inactive; . = no result given; & = joins results of further samples.

SMILES	MenB inh	MbtI inh	PV pol inh	PV pol inh intensity
Cc1[nH]n(-c2ccccc2)c(=S)c1C=NC(C)Cc1ccccc1 (stereo unspecified)	-85	12	102	100
CCOc1ccc(S(=O)(=O)N/N=C2/C=C(C)CC2)cc1	4	8	101	108
NC(=O)N/N=C/c1ccc(-c2ccc(SC(F)F)cc2)o1	10	-66	96	106
Oc1ccc2ccccc2c1C=Nc1c(F)c(F)c(F)c(F)c1F	.	-10	102	101
Cc1ccc(-c2cn3nc(C(C)C)sc3n2)cc1C	10	-19	102	99
CC(NC(=O)c1ccc(S(=O)(=O)N2CCCCC2)cc1)C(c1ccccc1)N1CCOCC1 (stereo unspecified)	-11	2	99	101
Nc1c(Br)cc(Br)cc1CNC1CCC(O)CC1 (stereo unspecified)	-4&5	-17&-11	101&101	101&101
COc1ccc(CNC(=O)c2cn(C)c(=O)c3ccccc23)cc1	-5	-11	101	99
C#CCSc1nc(=O)n2ccccc2n1	-26	7	105	104
CC(C)(C)NCC(O)COc1cccc2c1CCC(=O)N2 (stereo unspecified)	1	2	102	103
O=C(O)CCN1C(=O)c2cc(Cl)c(Cl)cc2C1=O	6	-6	103	105
Cc1cc(/C=C/C(=O)N2CCCC2c2cccs2)c(C)n1Cc1ccco1 (stereo unspecified)	-32	-3	.	.
Cc1cc(=O)[nH]c(SC(C(=O)O)c2ccccc2)n1 (stereo unspecified)	-19	-6	101	96
COc1ccc(C2(C(=O)NCc3nnc(SC)n3C(C)C)CC2)cc1	-53	-8	103	102
COC(=O)CNc1cc(C)c(C(O)(C(F)(F)F)C(F)(F)F)cc1OC	-20	.	103	114
O=C(Cn1cnc2c(oc3ccccc32)c1=O)N1CCCc2ccccc21	0	13	99	104
CCCCNC(=O)c1cn(CC(C)C)c(=O)c2cc(OC)c(OC)cc12	-38	13	100	96
Cc1ccn2cc(C(=O)OCCOc3ccccc3Cl)nc2c1	-17	-32	104	106
CC(C)c1n[nH]c(=S)n1N	-26	96*	62*	68*
COc1cc2c(cc1OC)CN(c1ccc3ccccc3n1)CC2	-5	-27	89*	89*
CCOC(=O)CSc1nc(NC#N)nc(N(CC)CC)n1	-13	-6	101	106
CCOC(=O)c1c(C)nn(-c2ncccc2NC(=O)NC(C)C)c1C	-10	-8	103	106
O=c1c2ccccc2ncn1CN1CCN(Cc2ccccc2)CC1	-16	0	100	98
CCOC(=O)C1=C(O)/C(=C/c2ccc(C)o2)SC1=NC(=O)c1ccccc1	-28	24	103	110
CCCCCc1ccc(-c2ccc(C#N)cc2)nc1	-29	8	101	102
SMILES	MenB inh	MbtI inh	PV pol inh	PV pol inh intensity
CN=C(c1ccc(C)cc1)n1c(=S)nc(-c2ccc(C)cc2)n(C)c1=S	-20	-9	104	103
CC(C)C(=O)NS(=O)(=O)c1ccc(NS(C)(=O)=O)cc1	14	4	102	104
O=C(O)c1cc2ccccc2nc1Cl	-6	17	76*	83*
Nc1c(-c2ccc3c(c2)OCCO3)oc2ccccc2c1=O	-66	-68	106	110
CCN(CC)C(=O)Cn1cc(SCC(N)=O)c2ccccc21	-13	4	100	103
O=C1C(=Cc2cccn2-c2ccc(O)cc2)C(=O)c2ccccc21	-39	-10	104	105
Cc1cc2ncn(CCC(=O)NC(C)(C)C)c2cc1C	-31	-7	102	101
COc1cccc(-c2nnc(SCCOc3ccccc3)n2C)c1	-13	-16	100	105
COc1cc(/C=N/NC(=O)CSc2nc(C)cc(C)n2)ccc1O	-33	6	100	100
O=C1CC(c2ccccc2F)c2cc3c(cc2N1)CCC3 (stereo unspecified)	-9	.	102	107
CC(Sc1ccccc1)C(=O)NCc1ccco1 (stereo unspecified)	-4	10	102	103
NNC(=O)c1ccc(CSc2ccc(C(F)(F)F)cn2)o1	11	2	104	111
COCC(=O)Nc1ccc2c(c1)OCC(=O)N2Cc1ccc(C)cc1	-46	4	101	100
Clc1ccccc1CNCc1ccccc1	2	.	107	112
C=CCc1cccc(C=Nc2cccn3cc(-c4ccccc4)nc23)c1O	-7	8	98	97
COCCn1c(O)c(/C=N/Nc2nnc(C)c(=O)[nH]2)c(=O)[nH]c1=S	-72	12	117	202
Cc1cc2c(N3CCC(C(=O)O)CC3)ncnc2s1	0	.	104	107
CC1=NN(c2ccccc2)C(=O)/C1=C\c1ccc(N)cc1	-95	11	99	99
N#Cc1cccc(OCC(=O)NC(=O)NCc2ccccc2)c1	-20	7	100	100
O=C(CC(SCc1ccco1)c1ccc(OC(F)F)cc1)c1ccco1 (stereo unspecified)	-20	5	102	107
CSc1ccc2nnc(-c3cccnc3)n2n1	-10	71	102	103
COCCCn1cc(C(=O)c2cc(F)ccc2O)cc(C#N)c1=O	-24	1	108	129
CN(C)CCNC(=O)c1ccc(Br)s1	-13	0	89*	74*
Cc1noc(C)c1CC(=O)N1CCC2CCCCC2C1 (stereo unspecified)	2	-8	103	100
S=c1nc(CNc2ccccc2)[nH][nH]1	-42	95*	102	101
SMILES	MenB inh	MbtI inh	PV pol inh	PV pol inh intensity
O=c1[nH]c(=O)n(-c2ccccc2F)c(O)c1C=NCCC1=CCCCC1	-11	19	105	103
N#C/C(=C\c1ccc2c(c1)OCO2)C(=O)OCCN1CCCC1=O	6	0	110	108
COc1ccc(N=Cc2ccc(SC)cc2)cc1N	.	-2	99	121
CC(NC(=O)Nc1ccccc1)C(c1cccs1)N1CCCC1 (stereo unspecified)	-2	12	105	109
CCOc1ccc2c(c1)[N+](C)(C)C(C)(C)C=C2C	-1	-2	99	102
O=S(=O)(c1cccs1)N(c1ccccc1)C(F)F	9	-3	100	106
Cc1ccc(C(=O)N/N=C/c2ccccc2)cc1	-1	16	101	102
CCC(=O)Nc1ccccc1N1CCN(C)CC1	-9	-10	101	105
C/C(=N\NC1=NCCN1)c1ccc(C)cc1	-23	4	103	101
C=CCn1c(SCC(=O)NC(C)(C#N)C(C)C)nc2ccccc2c1=O (stereo unspecified)	-5	-3	104	108
Cc1cc(NC(=O)c2cccc(S(=O)(=O)N3CCCCC3)c2)no1	-4	-5	100	101
CN(c1ccccc1C(=O)NCc1ccco1)S(C)(=O)=O	5	-3	98	105
O=c1c(=Nc2ccccc2O)c(=O)c2ccccc12	-8	.	95	99
Cc1ccc2nc(-c3ccc(N(C)C)cc3)[nH]c2c1	6	90	99	101
O=C(N/N=C1\CCCc2ccccc21)C(O)c1ccccc1 (stereo unspecified)	-7	9	102	101
CCc1ccc(-c2nn(-c3ccccc3)cc2/C=C2\SC(=S)NC2=O)cc1	.	-10	101	108
Cc1cc(NC(=O)/C=C\c2ccc3c(c2)OCO3)nc2c1c(=O)oc1ccccc12	15	-18	101	103
Cc1ccc(-n2c(SC/C(O)=C(\C#N)c3nc4ccccc4[nH]3)nc3ccccc3c2=O)cc1	16	-1	99	109
N#CCn1c(COC(=O)c2ccc(S(=O)(=O)N3CCCCCC3)cc2)nc2ccccc2c1=O	-24	-11	114	122
COc1cccc(N=Nc2c(O)[nH]c(=O)[nH]c2=O)c1	-294	-22	103	103
CCOC(=O)C1=C(CC)Nc2ccccc2N=C1NC(=O)Cn1cnc2ccccc2c1=O	-6	-6	100	97
Nc1ccccc1NCCO	14	14	107	97
CCOC(=O)c1cn2nc(Oc3ccc(N4CCN(C(C)=O)CC4)cc3)ccc2n1	3	28	105	101
COc1ccc(OCCCC(=O)OCc2nc3ccccc3[nH]2)cc1	-15	10	102	108
NC(=O)C1Cc2ccccc2CN1Cc1c(O)ccc2ccccc12 (stereo unspecified)	0	8	103	106
SMILES	MenB inh	MbtI inh	PV pol inh	PV pol inh intensity
O=C(COC(=O)C1CC1)Nc1ccccc1Cl	.	1	98	98
COc1ccc2cc3cc(C(=O)NCCN4CCN(c5ccccc5F)CC4)oc3nc2c1	-14	106	100	102
N#CC1(N2CCNCC2)CCCCC1	0	-9	101	103
Cc1ccc(NC(=O)CSc2nc3c(cnn3-c3ccc(S(N)(=O)=O)cc3)c(=O)[nH]2)cc1	7	8	100	101
O=C(NCc1ccc(Cl)cc1)C1CCCN(S(=O)(=O)N2CCCCC2)C1 (stereo unspecified)	13	-8	101	102
COc1ccc(S(=O)Cc2ccc(C(=O)NC3CC3)o2)cc1 (stereo unspecified)	-4	-3	104	103
CCC(=O)N(CCN1CCOCC1)Cc1cc2cc3c(cc2nc1Cl)OCO3	-15	34	102	104
COc1cc2c(cc1O)CC1c3c(cc(O)c(OC)c3-2)CCN1C (stereo unspecified)	-6	i	98	100
CC(C)[N+](C)(CCOC(=O)C1c2ccccc2Oc2ccccc21)C(C)C	-1&3	-9&-18	101&100	101&101
CCc1ccc(NC(=O)CCc2nc3cccnc3n2Cc2cccs2)cc1	-28	-7	104	126
O=C(Cn1nnc2ccccc21)N1CCN(S(=O)(=O)Cc2ccccc2)CC1	-8	8	106	100
O=C(NC(=S)NCCN1CCOCC1)c1cccc(C(F)(F)F)c1	-10	11	100	100
CCCCC[C@H](O)/C=C/[C@@H]1[C@@H](C/C=C\CCCC(=O)O)[C@@H](O)C[C@@H]1O	5	-22	103&101	102&102
O=C(Cc1nn[nH]n1)Nc1ccc(F)c(Cl)c1	-21	-5	102	109
N#C/C(=C\c1cccc(Oc2ccccc2)c1)C(N)=O	6	19	105	95
O=S(=O)(NCCc1cn2ccccc2n1)c1ccccc1	-29	-1	101	107
O=C(OC1CCCCC1=O)c1ccc(-c2nc3ccccc3s2)s1 (stereo unspecified)	-7	1	103	100
O=C1C2=C/C(=C\N3CCCCC3)C(=O)N2c2ccccc21	-12	.	44	246
Cc1c2cnn(-c3ccccc3)c(=O)c2c(C)n1CCCC(=O)N(C)Cc1ccccc1	-14	0	103	100
Cc1cc(/C=C2\C(=O)NC(=S)N(c3ccccc3F)C2=O)c(C)n1-c1ccc(Cl)c(C(=O)O)c1	-102	49	99	101
Cc1ccc(C(=O)COC(=O)c2nc(Cl)ccc2Cl)cc1	.	0	104	98
O=Nc1ccc(NOC(=O)c2ccc(Br)cc2)cc1	-17	-6	102	104
CCCNC(=O)COc1coc(CSc2nncn2C)cc1=O	-40	7	108	106
Cc1ccc(C)c(NC(=O)CN(C)C(=O)NCc2cccnc2)c1	-24	-11	105	102
CC1(C)Cc2c(sc(NC(=O)c3ccccc3)c2C#N)C(C)(C)N1	-4	.	95	107

By substructure: the entries above with a thiophene ring, fused or not (8)
SMILES	MenB inh	MbtI inh	PV pol inh	PV pol inh intensity
Cc1cc(/C=C/C(=O)N2CCCC2c2cccs2)c(C)n1Cc1ccco1 (stereo unspecified)	-32	-3	.	.
Cc1cc2c(N3CCC(C(=O)O)CC3)ncnc2s1	0	.	104	107
CN(C)CCNC(=O)c1ccc(Br)s1	-13	0	89*	74*
CC(NC(=O)Nc1ccccc1)C(c1cccs1)N1CCCC1 (stereo unspecified)	-2	12	105	109
O=S(=O)(c1cccs1)N(c1ccccc1)C(F)F	9	-3	100	106
CCc1ccc(NC(=O)CCc2nc3cccnc3n2Cc2cccs2)cc1	-28	-7	104	126
O=C(OC1CCCCC1=O)c1ccc(-c2nc3ccccc3s2)s1 (stereo unspecified)	-7	1	103	100
CC1(C)Cc2c(sc(NC(=O)c3ccccc3)c2C#N)C(C)(C)N1	-4	.	95	107

Some entries already given with just PV pol inh intensity, MbtI inh and MenB inh.
molecule	PV pol inh intensity	MbtI inh	MenB inh
O=Nc1ccc(NOC(=O)c2ccc(Br)cc2)cc1	104	-6	-17
CCCNC(=O)COc1coc(CSc2nncn2C)cc1=O	106	7	-40
Cc1ccc(C)c(NC(=O)CN(C)C(=O)NCc2cccnc2)c1	102	-11	-24

Additional records.
SMILES	MenB inh	MbtI inh	PV pol inh	PV pol inh intensity
O=C(N/N=C/c1cccc(O)c1)C1C2CCCCC21 (stereo unspecified)	-53	66	99	102
c1ccc(-c2cnc(CSc3nc4c(n3-c3ccccc3)CCCC4)o2)cc1	-6	-2	102	104
Cc1ccc(-c2c(CN3CCN(C)CC3)csc2C)cc1	-16	0	102	101
CCOc1ccc2nc(SCC(=O)N3CCN(C(=O)c4ccc(C)cc4)C3)sc2c1	-30	11	102	107
Cc1noc(C(=O)N2CCN(C(c3ccccc3)c3ccccc3)CC2)c1Cl	-34	6	100	102
O=C(CN1C(=O)CCC1=O)c1ccc2c(c1)OCCO2	1	-11	98	101
CCN1CCN(c2cc(C)c3cc(NC(=O)C4CCCCC4)ccc3n2)CC1	5	-10	102	102
CCN1CCCC1CNC(=O)c1cnc(SC)nc1-c1ccccc1 (stereo unspecified)	-7	-10	102	102
Cc1ccc2[nH]cc(CC(C)N)c2c1 (stereo unspecified)	-19	23	102	105
COc1ccc(-c2cc(=O)c3cccc(C)c3o2)cc1	-13	.	105	105
CC(=O)Nc1ccc(-n2cc(-c3ccccc3)nc2SCC(N)=O)cc1	.	-7	102	103
COC(=O)c1ccc(-c2ccc(/C=C3/C(=N)N4N=C(COc5ccccc5)SC4=NC3=O)o2)cc1	6	0	67	174
Cc1ccccc1NC(=O)N1c2ccccc2CC1C (stereo unspecified)	-18	1	102	103
Cc1nn(-c2ccccc2)c(C)c1/C=C/C(=O)OCc1nc2ccsc2c(=O)[nH]1	-3	25	99	107
CC(C)(C)NC(=O)Cn1c(=O)oc2ccccc21	-14	1	102	103
Cc1ccc(N(C(=O)COc2c(C)cccc2C)S(=O)(=O)c2ccc(Cl)cc2)cc1	-20	.	104	97
CCN1CCC(N(Cc2cccc(OC)c2)C(=O)Nc2ccc3c(c2)OCCO3)CC1	-10	-14	102	105
O=C(C1CCCCN1S(=O)(=O)c1ccc(F)cc1)N1CCN(c2ccccc2F)CC1 (stereo unspecified)	-6	6	101	99
